Screening results as filed in PubChem.
Vaccinia inh = Vaccinia orthopox stage-specific inhibition. Vaccinia-infected cells, mCherry/Venus stage reporter fluorescence; hits give low values; some inactives read as strong as hits. activity change (mCherry), % (test concentration not listed). hit rate 0.01% among 89,000. AID 1053133;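 active = mCherry past -33% and 40 or more points under the early reporter, replicates agreeing; inconclusive = past -33% without that gap or agreement; tested in A549 cells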;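 note: scaled between vehicle wells and reference inhibitor wells; 23 nL library stock went into each well; one replicate is shown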
Vaccinia inh Venus = recorded beside Vaccinia inh, whose call it bears; activity change (Venus), %; measured here: Venus reporter, other viral stage;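 negative = less Venus signal; first of two replicates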
An asterisk follows results filed as active; ? = inconclusive; / = no result given.

Order of values: Vaccinia inh	Vaccinia inh Venus
> C[C@@H]1CCCCO[C@H](CN(C)C(=O)c2ccncc2)[C@H](C)CN([C@H](C)CO)C(=O)c2cc(NS(=O)(=O)c3ccc(Cl)cc3)ccc2O1
 : 22	0
> O=C(C[C@H]1C=C[C@H](NC(=O)Nc2ccccc2F)[C@H](CO)O1)NCc1ccccc1
 : 10	5
> COc1ccc(S(=O)(=O)N2CCCCN3[C@H](C2)[C@H](c2ccc(-c4cccnc4)cc2)[C@@H]3CO)cc1
 : 11	-2
> CO[C@@H]1CN(C)C(=O)c2cc(NC(=O)C3CCCCC3)ccc2OC[C@@H](C)NC[C@@H]1C
 : 3	7
> COCC(=O)NC[C@@H]1[C@@H](c2ccccc2)[C@@H](CO)N1C(=O)c1ccccc1
 : 2	7
> O=C(C[C@@H]1CC[C@H]2[C@@H](COC[C@H](O)CN2C(=O)Nc2ccc(F)cc2)O1)NCCc1ccccc1
 : -1	5
> CCC(=O)N(C)C[C@H]1Oc2cc(-c3ccc(C)cc3)ccc2S(=O)(=O)N([C@@H](C)CO)C[C@H]1C
 : ?	/
> C[C@H]1CN([C@@H](C)CO)C(=O)Cc2cc(NS(=O)(=O)c3cn(C)cn3)ccc2O[C@H]1CN(C)C(=O)Nc1ccccc1
 : -9	2
> Cc1noc(C)c1S(=O)(=O)Nc1cccc2c1O[C@@H](CN(C)C(=O)NC1CCCCC1)[C@@H](C)CN([C@H](C)CO)C2=O
 : -9	7
> C[C@H](CO)N1C[C@H](C)[C@H](CN(C)C(=O)Nc2ccc3c(c2)OCO3)Oc2c(NS(=O)(=O)c3ccc(F)cc3)cccc2C1=O
 : 5	2
> COc1ccccc1NC(=O)N(C)C[C@@H]1OCc2cn(nn2)CCCC(=O)N([C@H](C)CO)C[C@H]1C
 : 17	20
> C[C@@H]1CN([C@@H](C)CO)C(=O)c2cc(C3=CCCCC3)cnc2O[C@H]1CN(C)C(=O)Cc1ccncc1
 : -9	-7
> CCC(=O)N1CC2(C1)[C@H](c1ccc(-c3ccccc3C)cc1)[C@H](CO)N2C(=O)CC
 : -4	4
> O=C(C[C@@H]1CC[C@@H](NS(=O)(=O)c2ccc(F)cc2)[C@@H](CO)O1)NCCN1CCCCC1
 : 9	2
> COc1ccc(NC(=O)Nc2cccc3c2O[C@@H](CN(C)Cc2ccc(C(F)(F)F)cc2)[C@H](C)CN([C@H](C)CO)C3=O)cc1
 : -8	-1

(listing goes on)
Order of values: Vaccinia inh	Vaccinia inh Venus
> COc1ccc(NC(=O)N(C)C[C@@H]2OCCCC[C@@H](C)Oc3ccc(NC(=O)Nc4ccc(C(F)(F)F)cc4)cc3C(=O)N([C@@H](C)CO)C[C@@H]2C)cc1
 : -16	-8
> CO[C@@H](CN(C)C(=O)c1ccccc1F)[C@H](C)CN([C@@H](C)CO)S(=O)(=O)c1ccccc1
 : 13	12
> COCC(=O)N1C[C@H]2[C@@H](c3ccccc31)[C@@H](CO)N2C(=O)c1ccccc1F
 : 3	3
> COCC(=O)Nc1ccc2c(c1)[C@H]1C[C@H](CC(=O)NCc3ccc4c(c3)OCO4)O[C@@H](CO)[C@H]1O2
 : 10	15
> COc1cccc(CNC(=O)C[C@H]2CC[C@@H](NS(=O)(=O)c3ccccc3OC)[C@H](CO)O2)c1
 : 15	3
> COc1ccc(CN(C)C[C@@H]2Oc3ccc(NS(=O)(=O)c4cccs4)cc3CC(=O)N([C@@H](C)CO)C[C@@H]2C)cc1
 : -5	-1
> CNC[C@@H]1Oc2ccc(NS(C)(=O)=O)cc2CC(=O)N([C@H](C)CO)C[C@@H]1C
 : 17	25
> C[C@@H]1CN([C@H](C)CO)C(=O)c2cccc(NC(=O)Nc3cccc4ccccc34)c2O[C@H]1CN(C)C(=O)NC1CCCCC1
 : -1	3
> C[C@@H]1CN([C@H](C)CO)C(=O)c2cc(NC(=O)Nc3cccc4ccccc34)ccc2O[C@H]1CN(C)C(=O)NC1CCCCC1
 : 20	11
> Cc1ccccc1S(=O)(=O)N[C@@H]1CC[C@@H](CCn2cc(-c3ccccc3)nn2)O[C@H]1CO
 : 4	1
> C[C@H](O)C#Cc1cnc2c(c1)C(=O)N([C@H](C)CO)C[C@@H](C)[C@H](CN(C)Cc1cncnc1)O2
 : 10	11
> C[C@H](CO)N1C[C@H](C)[C@@H](CN(C)Cc2ccc(Cl)c(Cl)c2)OCCCC[C@H](C)Oc2ccc(NS(=O)(=O)c3ccccc3)cc2C1=O
 : ?	/
> C[C@H](CO)N1C[C@H](C)[C@@H](CN(C)Cc2ccc3c(c2)OCO3)OCCCC[C@H](C)Oc2ccc(NS(C)(=O)=O)cc2C1=O
 : 13	11
> COc1ccc(S(=O)(=O)N(C)C[C@H]2Oc3ccc(NC(=O)C4CC4)cc3CC(=O)N([C@@H](C)CO)C[C@@H]2C)cc1
 : 10	14
> C[C@H](CO)N1C[C@H](C)[C@H](CN(C)Cc2ccccc2)Oc2ncc(-c3cccc(C(F)(F)F)c3)cc2C1=O
 : ?	/

(further entries)
Order of values: Vaccinia inh	Vaccinia inh Venus
> O=C(CN1CCOCC1)N[C@H]1CC[C@@H](CCNS(=O)(=O)c2ccccc2F)O[C@H]1CO
 : 4	3
> CN(C[C@@H]1[C@@H](c2ccccc2)[C@H](CO)N1Cc1ccccn1)S(C)(=O)=O
 : 3	-17
> O=C(Nc1cc(F)ccc1F)N1CC(=O)N2[C@H](CO)[C@H](c3ccc(C#CC4CCCC4)cc3)[C@@H]2C1
 : 4	0
> COCC(=O)N(C)C[C@H]1Oc2cc(-c3ccncc3)ccc2S(=O)(=O)N([C@H](C)CO)C[C@@H]1C
 : 5	10
> O=C(C[C@H]1CC[C@H](NC(=O)Nc2ccccc2F)[C@@H](CO)O1)NCc1ccc(Cl)cc1
 : 10	6
> C[C@@H](NC(=O)C[C@@H]1C=C[C@H](NC(=O)Nc2ccc3c(c2)OCO3)[C@H](CO)O1)c1ccccc1
 : 5	10
> C[C@H]1CN([C@@H](C)CO)C(=O)c2cc(/C=C/c3ccccc3)cnc2O[C@@H]1CN(C)C(=O)C1CCCCC1
 : -31	-22
> Cc1ccccc1-c1ccc([C@H]2[C@@H](CO)N3C(=O)CN(C(=O)Cc4ccccn4)C[C@@H]23)cc1
 : 7	-14
> COc1cccc(S(=O)(=O)Nc2ccc3c(c2)[C@@H]2C[C@H](CC(=O)N4CCCCC4)O[C@@H](CO)[C@@H]2O3)c1
 : -4	5
> C[C@@H]1CCCCO[C@H](CN(C)CC2CCCCC2)[C@H](C)CN([C@@H](C)CO)C(=O)c2cc(NC(=O)Nc3ccccc3)ccc2O1
 : -20	-19
> CO[C@H]1CN(C)C(=O)c2cc(NC(=O)Nc3ccccc3)ccc2OC[C@@H](C)N(C(=O)CN(C)C)C[C@H]1C
 : 26	3
> O=C(NCc1nc2ccccc2[nH]1)C1=C[C@H](c2csc3ccccc23)C[C@H](OCc2ccc(CO)cc2)O1
 : 11	5
> COc1cccc(-c2cnc3c(c2)C(=O)N([C@@H](C)CO)C[C@@H](C)[C@@H](CN(C)C(=O)Nc2ccccc2F)O3)c1
 : -10	-5
> CC(=O)N[C@H]1CC[C@H](CCNC(=O)Nc2ccc(C(F)(F)F)cc2)O[C@@H]1CO
 : -14	-10
> CC(C)CC#Cc1ccc2c(c1)O[C@H](CN(C)C(=O)C1CCCCC1)[C@@H](C)CN([C@@H](C)CO)S2(=O)=O
 : -24	-15

Ordered by SMILES length (lowest first): some entries from above.
Order of values: Vaccinia inh	Vaccinia inh Venus
> CN(C[C@@H]1[C@@H](c2ccccc2)[C@H](CO)N1Cc1ccccn1)S(C)(=O)=O
 : 3	-17
> Cc1ccccc1S(=O)(=O)N[C@@H]1CC[C@@H](CCn2cc(-c3ccccc3)nn2)O[C@H]1CO
 : 4	1
> O=C(Nc1cc(F)ccc1F)N1CC(=O)N2[C@H](CO)[C@H](c3ccc(C#CC4CCCC4)cc3)[C@@H]2C1
 : 4	0
> Cc1noc(C)c1S(=O)(=O)Nc1cccc2c1O[C@@H](CN(C)C(=O)NC1CCCCC1)[C@@H](C)CN([C@H](C)CO)C2=O
 : -9	7

(listing goes on)
Order of values: Vaccinia inh	Vaccinia inh Venus
> N#C[C@H]1[C@H](c2ccccc2-c2ccccc2)[C@H](CO)N1C(=O)NC1CCCCC1
 : -6	-2
> CCS(=O)(=O)N1[C@H](CO)[C@@H](c2ccc(C#CC(C)C)cc2)[C@@H]1C#N
 : 6	-2
> COc1ccccc1-c1ccc2c(c1)O[C@H](CN(C)C(=O)Nc1ccccc1)[C@@H](C)CN([C@H](C)CO)S2(=O)=O
 : -16	-8
> Cc1noc(C)c1C(=O)N(C)C[C@@H]1OCc2ccccc2-c2ccccc2C(=O)N([C@@H](C)CO)C[C@H]1C
 : 14	-2
> C[C@@H]1CN([C@@H](C)CO)S(=O)(=O)c2ccc(-c3ccncc3)cc2O[C@H]1CN(C)S(C)(=O)=O
 : -3	0
> O=C(c1ccncc1)N1C[C@H]2[C@@H](c3ccccc31)[C@H](CO)N2Cc1ccc(F)cc1
 : 4	3
> N#Cc1cccc(-c2ccc3c(c2)[C@@H]2[C@@H](CCN2S(=O)(=O)c2cccc(F)c2)[C@H](CO)N3)c1
 : ?	/
> CO[C@H]1CN(C)C(=O)c2ccc(NC(C)=O)cc2OC[C@@H](C)N(CC2CC2)C[C@@H]1C
 : 4	8
> COc1cccc(C(=O)N2C[C@@H]3[C@H](c4ccccc42)[C@H](CO)N3C(C)=O)c1
 : 23	8
> CC(C)CC#Cc1ccc([C@H]2[C@H]3CN(C(=O)NC4CCCC4)CC(=O)N3[C@H]2CO)cc1
 : ?	/
> O=C(c1ccccn1)N1CC2(C1)[C@H](c1ccccc1)[C@@H](CO)N2C(=O)C1CCCC1
 : 5	1
> C[C@H](CO)N1C[C@H](C)[C@@H](CN(C)C(=O)Cc2ccccc2)OCc2cn(nn2)CCCC1=O
 : 4	-3
> CN1CCN(C(=O)C[C@H]2C=C[C@H](NC(=O)Nc3ccccc3F)[C@@H](CO)O2)CC1
 : -14	-11
> CC(C)C#Cc1ccc2c(c1)O[C@H](CN(C)C(=O)c1ccccn1)[C@H](C)CN([C@@H](C)CO)S2(=O)=O
 : -9	-3
> C[C@@H]1CN([C@@H](C)CO)C(=O)Cc2cc(NC(=O)C3CCCCC3)ccc2O[C@H]1CN(C)Cc1ccc(C(=O)Nc2ccccc2N)cc1
 : 8	4

(list continues)
Order of values: Vaccinia inh	Vaccinia inh Venus
> Cc1ccc(S(=O)(=O)Nc2ccc3c(c2)C(=O)N([C@@H](C)CO)C[C@@H](C)[C@@H](CN(C)Cc2ccc(Cl)c(Cl)c2)O3)cc1
 : ?	/
> COc1ccc(S(=O)(=O)Nc2ccc3c(c2)CC(=O)N([C@@H](C)CO)C[C@@H](C)[C@H](CN(C)C(=O)Nc2c(C)noc2C)O3)cc1
 : 8	0
> O=C(Nc1ccc2c(c1)OCO2)N[C@H]1CC[C@@H](CCNC(=O)C2CCC2)O[C@H]1CO
 : -7	8
> C[C@H](O)C#Cc1cnc2c(c1)C(=O)N([C@H](C)CO)C[C@H](C)[C@H](CN(C)Cc1cccc(F)c1)O2
 : 7	4
> CCCN1C[C@H](C)[C@H](OC)CN(C)C(=O)c2cc(NC(=O)C3CCOCC3)ccc2OC[C@H]1C
 : 16	15
> COC(=O)[C@@H]1[C@@H](CO)[C@@H]2Cn3c(ccc(-c4cncnc4)c3=O)[C@H]1N2S(=O)(=O)c1ccccc1C
 : 4	14
> CCS(=O)(=O)N1CC(=O)N2[C@H](CO)[C@@H](c3ccc(-c4ccccc4)cc3)[C@@H]2C1
 : -6	-2
> O=C(Cc1ccccc1)N1C[C@H]2[C@@H](c3ccccc31)[C@@H](CO)N2C(=O)c1ccc(F)cc1
 : 10	2
> Cc1noc(C)c1NC(=O)N(C)C[C@@H]1Oc2ccc(NC(=O)NC(C)C)cc2C(=O)N([C@H](C)CO)C[C@@H]1C
 : -2	-4
> Cc1ccccc1S(=O)(=O)NCC[C@@H]1CC[C@H](NS(=O)(=O)c2ccccc2C)[C@@H](CO)O1
 : -15	-10
> COCC(=O)N(C)C[C@H]1Oc2ncc(-c3ccc(F)cc3)cc2C(=O)N([C@@H](C)CO)C[C@H]1C
 : 16	7
> O=C(Nc1ccc(Cl)c(Cl)c1)N[C@@H]1CC[C@H](CCn2cc(C3CC3)nn2)O[C@H]1CO
 : -13	-5
> C[C@@H]1CN([C@@H](C)CO)C(=O)Cc2cc(NC(=O)NC3CCCCC3)ccc2O[C@H]1CN(C)Cc1ccc(Oc2ccccc2)cc1
 : ?	/
> C[C@H]1CN([C@@H](C)CO)C(=O)c2cc(NC(=O)C3CC3)ccc2O[C@H]1CN(C)S(=O)(=O)c1ccccc1
 : 9	-1
> O=C(C[C@H]1CC[C@@H](NS(=O)(=O)c2ccc(F)cc2)[C@@H](CO)O1)NCCN1CCCCC1
 : -3	-2

An excerpt of these results, in markdown.
| smiles | Vaccinia inh | Vaccinia inh Venus |
| --- | --- | --- |
| O=C(Cc1ccccc1)N1C[C@H]2[C@@H](c3ccccc31)[C@@H](CO)N2C(=O)c1ccc(F)cc1 | 10 | 2 |
| C[C@H](O)C#Cc1cnc2c(c1)C(=O)N([C@H](C)CO)C[C@H](C)[C@H](CN(C)Cc1cccc(F)c1)O2 | 7 | 4 |

(list continues)
Order of values: Vaccinia inh	Vaccinia inh Venus
> COc1ccc2c3c(n(C)c2c1)[C@H](CO)N(C)CC31CN(S(=O)(=O)c2cccc(C)c2)C1
 : -2	-11
> C[C@@H]1CN([C@H](C)CO)C(=O)c2cc(C#Cc3ccccc3F)cnc2O[C@@H]1CN(C)C(=O)Cc1ccccc1
 : -29	-22
> O=C(Cc1ccncc1)NCC[C@@H]1CC[C@@H](NC(=O)Nc2ccc(F)cc2)[C@H](CO)O1
 : 9	3
> C[C@@H]1CCCCO[C@@H](CN(C)S(=O)(=O)c2ccc(Cl)cc2)[C@H](C)CN([C@@H](C)CO)C(=O)c2cc(NC(=O)Cc3ccccc3)ccc2O1
 : ?	/
> COc1ccc2c3c([nH]c2c1)[C@@H](CO)N(Cc1ccccc1F)CC31CCN(CC2CC2)CC1
 : ?	/
> Cc1ccc(S(=O)(=O)Nc2ccc3c(c2)C(=O)N([C@H](C)CO)C[C@H](C)[C@H](CN(C)S(C)(=O)=O)OCCCC[C@H](C)O3)cc1
 : 9	8

The list is partial (hit frequency here may not be typical).
